Ba CapD inh: blocks the Bacillus anthracis CapD enzyme. z-score (test concentration not listed). purified CapD enzyme, fluorescence intensity read-out; active compounds read low; some hits fall short of the stated cut. 0.23% of 140,000 active;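 active = z-score under -4 in either of two replicates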;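 also: stock transfer was 100 nL into about 40 µL; score is relative to mean and spread of the plate; one replicate is shown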
AID504770: growth inhibitors of E. coli YBA685 in a screen for V. cholerae RctB (chromosome II replication) inhibitors | E. coli YBA685 rctB-dependent plasmid, OD600 growth, 3 h; active compounds read low | z-score (concentration not given with the values) | 0.27% of 130,000 active;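 active = z-score under -2 on both plates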;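 also: wells of about 30 µL received 100 nL stock; score is relative to mean and SD of the test wells; the first replicate is given; strong numbers were not always called active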
The depositor's hits bear a star; / = not tested or not shown; & = joins results of further samples.

SMILES	Ba CapD inh	AID504770
CN1CCC(N(C)Cc2cc(=O)oc3cc4c(cc23)CCC4)CC1	/	-0.1
COC(=O)C(CC(C)C)NC(=O)c1c(-c2c(Cl)cccc2Cl)noc1C (centres undefined)	0.16	-1
Cn1c(=O)c2c(ncn2CC(=O)Nc2ccc(Cl)cc2)n(C)c1=O	0.07	/
O=C(CC(NCCc1ccc(Cl)cc1)C(=O)O)c1ccc(Br)cc1 (centres undefined)	-0.5	1.45
O=C(OCc1cc(-c2ccc(Cl)c(Cl)c2)on1)c1ccc(F)cc1	-0.49	/
COC(=O)c1cccc(C(=O)Oc2ccc(OC(=O)c3cccc(C(=O)OC)n3)c(Cl)c2)n1	-0.195	-2.15
CCCN(CCC)C(=O)Cn1c(=O)n(CCCC(=O)NCc2ccc(C)cc2)c(=O)c2ccccc21	-0.135	-2.25
CN(C)c1cc(C(F)(F)F)cnc1C#N	-0.665	-1
CNc1nc(N)c(C(=O)c2ccccc2)s1	-1.76	-0.5
C/C(=N\NC(=S)Nc1ccc(C(C)C)cc1)c1ccco1	-2.15	/
O=C1c2ccccc2C(=O)N1CC(=O)N(c1ccccc1)c1ccccc1	70.7	1.15
CS(=O)(=O)c1ccc(/C=C/C(=O)Nc2ccc(F)cc2Cl)cc1	0.005	/
CCOC(=O)c1ccc(N=C2SC(C(=O)Nc3ccc(OC)cc3)CC(=O)N2C)cc1 (centres undefined)	-0.07	/
CC1CCCC(C)N1C(=O)CSc1nc2ccccc2o1 (centres undefined)	0.7	-0.2
O=C(CONC1=NCCCCC1)Nc1ccc(Oc2ccccc2)cc1	/	-0.6
O=c1onc(-c2cccnc2)n1-c1ccccc1C(F)(F)F	0.105	1
COc1nc(N)c(C#N)c(-c2ccccc2)c1C#N	0.005	-0.2
Cc1cccc(NC(=O)C(F)(F)F)c1C	0.315	-1.2
CCOC(=O)c1c(OCCOC(=O)c2ccc(Cl)cc2Cl)noc1N	-0.375	/
CCOC(CCn1c(SCC(=O)N2CCN(c3ccccc3OC)CC2)nc2ccccc2c1=O)OCC	-0.51	/
Cc1ccsc1C1N(Cc2ccc(Cl)cc2)CCN1Cc1ccc(Cl)cc1	-0.195	/
CN1C(=O)C(Cc2ccccc2)(c2ccccc2)c2ccccc21 (centres undefined)	0.575	0.1
Cc1cc(N2CCN(C)CC2)n2c(nc3ccccc32)c1C#N	1.17	/
CN(C)C1NC(=O)c2cc(-c3ccccc3)sc2N1 (centres undefined)	/	0.4
COC(=O)c1nc2ccccc2n1Cc1ccc(C)cc1	2.8	-0.25

A different layout for some results above:
CCOC(CCn1c(SCC(=O)N2CCN(c3ccccc3OC)CC2)nc2ccccc2c1=O)OCC
  Ba CapD inh: -0.51
  AID504770: /

CCOC(=O)c1c(OCCOC(=O)c2ccc(Cl)cc2Cl)noc1N
  Ba CapD inh: -0.375
  AID504770: /

(list continues)
SMILES	Ba CapD inh	AID504770
O=C(Nc1ccc2n[nH]nc2c1)c1sc2ccccc2c1Cl	1.01	/
CCOC(=O)C1=C(C)NC2=C(C(=O)c3ccccc32)C1c1ccc(OCC)c(OC)c1 (centres undefined)	-0.485	/
O=C1CCC(=O)N1CC(O)CCOc1ccc(OCCC(O)CN2C(=O)CCC2=O)cc1 (centres undefined)	/	-1.05
COc1cccc(C(c2nnnn2CCC(C)C)N2CCN(Cc3ccccc3)CC2)c1OC (centres undefined)	/	1.8
COC(=O)Oc1ccc2c(=O)c(-c3ccccc3Cl)coc2c1	0.365	0.55
Cc1cc(C(F)(F)F)nn1CC(=O)N(C)c1ccccc1	/	-0.35
O=C(O)c1ccc(-n2cc(-c3ccncc3)cn2)cc1	0.89	/
O=C(Cn1cc(/C=C2\C(=O)NC(=O)N(c3cccc(F)c3)C2=O)c2ccccc21)Nc1ccccc1	0.38	/
COC(=O)C1=C(C)N(C)C(C)=C(C(=O)OC)C1c1ccccc1	0.8	0.9
OCc1c[nH]c(=S)n1CCNc1ncc(C(F)(F)F)cc1Cl	0.24	/
CCC(=O)Nc1nc2ccc(Cl)cc2s1	1.1	0.25
N#CCC(=O)c1ccc(OC(F)(F)F)cc1	-0.32	/
COc1ccccc1C/C(C)=N/NC(N)=S	/	-0.8
CC(C)(CO)NC(=O)C1CCCNC1=O (centres undefined)	0.66	1.4
N#CC1=C(NC(=O)c2ccccc2)c2ccccc2CC12CCCCC2	-0.225	/
Oc1ccc(/C=N/c2c(-c3ccco3)nc3ccc(Cl)cn23)cc1	-2.04	-0.55
Oc1ccccc1N=Cc1sc2ccccc2c1Cl	0.09	0.2
Cc1cc(-c2ccc(C3Nc4ccc5ccccc5c4C4=C3C(=O)CC(C)(C)C4)o2)cc([N+](=O)[O-])c1C (centres undefined)	0.26	/
Cc1ccccc1-n1cc[nH]c1=S	/	0.2
Clc1ccccc1-c1nn2cc(-c3ccc(Br)cc3)c3c2n1CCCC3	-0.31	/
O=C(CN1CCN(c2ccccc2)CC1)NC1CC1	0.185	-0.3
CCOC(=O)c1c(NC(=O)Cc2ccc(Cl)cc2)sc(C(=O)Nc2cccc(Cl)c2C)c1C	-0.66	/
C=CCn1c(COc2ccc(CC)cc2)nnc1SCc1nc2sc(C)c(C)c2c(=O)[nH]1	/	0.45
COCCCNC(=S)Nc1cccc(Cl)c1C	0.18	/
N#CCCn1c2c(ccc1=O)CCCC2	0.655	1.15
Cc1ccc(-n2nc(C)cc2C)nn1	0.505	0.4
O=C(Cc1ccc2c(c1)OCCO2)N1CCN(C(=O)C2CCCO2)CC1 (centres undefined)	/	0.85
COC(=S)Nc1cc(Cl)cc(Cl)c1	-0.43	-0.35
COc1ccc(-c2[nH]nc3c2C(c2cc(Cl)c(O)c(OC)c2)C(C#N)=C(N)O3)cc1 (centres undefined)	0.12	/
CCN(CC)c1cc(C(F)(F)F)nc(-c2ccccn2)n1	2.16	-0.95
CC1=C/C(=N\Nc2ccnc3cc(Cl)ccc23)CC1	/	-1.15
CNC(=O)c1cccn1-c1nnc(N2CCCCC2)s1	0.48	-0.25
Cc1cccc(CCOC(=O)N2CCCC(O)C2)c1 (centres undefined)	-0.765	/
S=C(NCc1ccco1)N1CCN(c2cccc(Cl)c2)CC1	-1.08	2.3
COc1cccc(NC(=O)CCCC(=O)Nc2cccc(OC)c2)c1	-0.545	-0.6
C=CCNC(=O)C1CCN(S(=O)(=O)N2CCC3(CC2)OCCO3)CC1	-0.025	-0.85
Cc1ccc(C(c2nnnn2Cc2ccccc2)N2CCC(C)CC2)cc1 (centres undefined)	/	-0.1
Cc1ccc(NC(=O)Nc2sc(=S)n(C)c2C)cc1	-0.07	-0.45
O=C(c1cc2sccc2n1Cc1ccccc1)N1CCCCC1	/	0.15
CSc1sc(C#N)c2c1C(=O)CC(C)(C)C2	-0.685	/
CN(C)CCN1C(=O)c2ccccc2C1=O	/	-0.65
Cc1ccc(S(=O)(=O)N(C(F)F)C(C)(C)C)cc1	/	1.35
Cc1cc(C)nc(NS(=O)(=O)c2ccc(NC(=O)c3ccc(-c4ccccc4)cc3)cc2)n1	1.46	/
CNC(=O)CSc1nnc(Nc2ccc(C(C)C)cc2)s1	/	1.3
NC(=S)c1c(Cl)cc(C(F)(F)F)cc1Cl	-0.58	/
C=C(C)Cn1c(SCC(=O)N/N=C/c2ccc(OC)cc2)nc2ccccc2c1=O	-0.43	1.45
CC(Sc1nc(-c2ccccc2)cc(C(F)(F)F)n1)C(=O)NCc1ccccc1 (centres undefined)	-0.785	-0.7
COc1ccc(-n2nc(C(=O)NCC(=O)NC3CCCCCC3)c3ccccc3c2=O)c(OC)c1	0.345	-2.75
O=C(/C=C/N(c1ccccc1)c1ccccn1)C(F)(F)F	/	-0.45
Cn1c(O)c(C=NCCN2CCN(C(=O)c3ccccc3)CC2)c(=O)n(C)c1=O	/	0.25

Continued.
SMILES	Ba CapD inh	AID504770
Cc1cc(C(=O)CSc2nc3cc(S(=O)(=O)N(C)C)ccc3o2)c(C)n1-c1ccc2c(c1)OCO2	/	0
Cc1nnc(NC(=O)c2ccccc2C(F)(F)F)s1	0.095	1.15
CC12CC3CC1C(OC2=O)C3I (centres undefined)	0.24	/
CC(C)(C)c1ccc(CN2C3=NCCN3c3ccccc32)cc1	-0.57	/
CCOC(=O)c1sc(NC(=O)C(C)Sc2nnc(CNC(=O)c3ccc(OC)cc3)n2C)c(C(=O)OCC)c1C (centres undefined)	-0.51	/
O=C1C2CCN(CC2)C1CSc1ccc(Cl)cc1 (centres undefined)	-0.365	/
CCc1ccc(C(=O)c2cncc(Br)c2)cc1	0.04	-0.3
CCN(CC)CC1CCCNC1 (centres undefined)	/	-0.5
Cc1ccc(Oc2ncccc2NC(=O)Nc2ccccc2)c2c1CCC2	-0.38	0.6
CCOc1ccc(NC(=O)Cn2c(C(=O)OC)ccc2-c2ccco2)cc1	0.54	1.1
CCOC(=O)c1c(N=Cc2ccncc2)n[nH]c1C	0.34	0.55
O=C(O)CC1(CC(=O)NCc2cc(F)cc3c2OCOC3)CCCCC1	-0.015	1
Cc1c(C(=O)N2CCCCC2)c(S(=O)(=O)N2CCC(C)CC2)c(C)n1C	-0.005	-1.05
NC(Cc1c[nH]c2ccccc12)C(=O)NCc1ccccc1 (centres undefined)	/	0
CC(C)=NNc1ccc2nnc(-c3ccccc3)n2n1	-2.29	-1.1
O=C(c1ccc(Cl)nc1)N1CCN(C(c2ccccc2)c2ccccc2)CC1	/	0.35
COC(=O)c1c(N)c(C#N)c(C)n1-c1ccccc1	0.015	-0.95
Cn1c(=S)n(CN2CCOCC2)c2ccccc21	-0.525	1.45
CC12CCC(=O)N1C(C(=O)OCc1nnc(-c3ccccc3)o1)CS2 (centres undefined)	/	-0.55
CCOC(=O)C1=CC2(SC=C(C(=O)OCC)S2)C2=C(S1)C(C)(C)N(C(=O)c1ccccc1)c1ccccc12 (centres undefined)	0.72	/
CCCCNC(=S)N1CCn2cccc2C1c1cccnc1 (centres undefined)	0.345	0.4
Cc1[nH]c2ccc(Cl)c3c2c1CCN1C(=O)OC(C)(C)C31C (centres undefined)	-0.16	/
CSc1ccccc1-c1nc(-c2ccccc2)no1	7.19	-0.25
Cn1c(-c2cc3ccc(OC(=O)c4ccco4)cc3oc2=O)nc2ccccc21	/	0.9
O=C1C2=C(Nc3ccccc3S(=O)(=O)C2c2ccc(Cl)cc2)c2ccccc21 (centres undefined)	-1.79	0.45

Record cards (already shown). Screens in order: Ba CapD inh, AID504770
O=C1C2CCN(CC2)C1CSc1ccc(Cl)cc1 (centres undefined) as listed: -0.365, /
CC(C)(C)c1ccc(CN2C3=NCCN3c3ccccc32)cc1 as listed: -0.57, /
COC(=O)c1c(N)c(C#N)c(C)n1-c1ccccc1 as listed: 0.015, -0.95
CCOC(=O)c1sc(NC(=O)C(C)Sc2nnc(CNC(=O)c3ccc(OC)cc3)n2C)c(C(=O)OCC)c1C (centres undefined) as listed: -0.51, /
Cn1c(=S)n(CN2CCOCC2)c2ccccc21 as listed: -0.525, 1.45

Carrying on.
SMILES	Ba CapD inh	AID504770
S=C1NC2(CCCCC2)NN1c1ccccc1	-0.825&-0.4	0.55
O=c1[nH]c2ccccc2c(=O)n1NS(=O)(=O)c1ccc2ccccc2c1	1.04	1.15
COc1ccc2c(CCl)cc(=O)oc2c1	6.39	-0.35
Cc1cc(-c2cccs2)c2c(N)c(C(=O)c3ccc4c(c3)OCO4)sc2n1	0.125	0.25
O=C(CSc1nnc(CCCN2C(=O)c3cccc4cccc(c34)C2=O)n1-c1ccccc1)N1CCN(CCO)CC1	26	/
CCOc1cccc(C(=O)NNC(=O)OCCc2c(F)cccc2Cl)c1	-0.875	/
CNC(=O)C1CCC(=O)N1Cc1ccccc1Cl (centres undefined)	-0.35	0
CCOC(=O)c1c(NC(=O)c2ccco2)sc2c1CCC(C#N)(c1ccccc1)C2 (centres undefined)	0.72	/
CN(C)CCN1C(c2ccccc2)=CC(=C2C(=O)N(C)C(=O)N(C)C2=O)C2=C1CCCC2	/	1.05
CC(COc1ccc(C(C)C)cc1)NC(=O)c1cccs1 (centres undefined)	0.16	0.95
CCOC(=O)c1ccc2c(c1)[C@@H]1C=CC[C@@H]1[C@H](C(=O)OCC)N2	1.42	-0.2
CCN1C[C@]2(C)CC[C@H](O)C34C5C[C@H]6C(O)C5[C@](O)(C[C@@H]6OC)C(CC32)[C@@H]14 (some centres undefined)	-0.46	/
O=C(Cc1cccs1)NCCC1=CCCCC1	0.425	-0.55
CCCCCCOC(=O)c1ccc(-c2ccc(-c3ccc(C(=O)OCCCCCC)cc3)cc2)cc1	0.465	/
O=C(O)C1=CC2c3ccccc3C1c1ccccc12	-0.475	-0.35
FC(F)(F)c1n[nH]c(=S)n1/N=C/c1c[nH]c2ccccc12	-1.55	0.25
CN(C(=O)CSc1nc2ccccc2[nH]1)C1CCS(=O)(=O)C1 (centres undefined)	/	0.25
CC(C)(C)c1cc2cc(NC3CCN(Cc4ccccc4)CC3)ccc2[nH]1	1.44	/
CC(=O)Nc1cc(OC(C)=O)c2nonc2c1OC(C)=O	/	-1.1
CC1CCCCN1CCCNS(=O)(=O)c1cccc(F)c1 (centres undefined)	0.26	/
CC1CCCN(C(=O)CN2CCN(C(=O)c3ccco3)CC2)C1 (centres undefined)	/	-0.1
COc1ccc(/C=C(\C#N)S(=O)(=O)c2ccc(C(F)(F)F)cn2)cc1OC	-0.555	1.3
CCOC(=O)c1ccc(NC(=O)CC2SC(=NC)N(C)C2=O)cc1 (centres undefined)	-0.64	/

Screening data: PubChem BioAssay, ICCB-Longwood Screening Facility, Harvard Medical School
